Source: PubChem
Yeast UUG start = modulators of start codon recognition fidelity in yeast; S. cerevisiae UUG-firefly luciferase reporter, luminescence/redox ratio; activity score, % at 18.7 µM; 350,000 compounds, 0.13% hits;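 active means replicate mean at a twofold rise or more, about +100% in these data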;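 further: firefly luciferase made from a UUG start codon reports start codon fidelity; reporter light over untreated wells divided by growth signal over untreated wells; some hits fall short of that in this replicate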
Rce1 inhib = yeast Ras-converting enzyme inhibition; Q03530; AID 2563; 290,000 compounds, 0.27% hits; calls only; yeast membranes, quenched prenylated peptide cleavage fluorescence;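 active means fall in fluorescence gain of 50% or more versus controls, with final raw signal at or below 3038400; inconclusive means same 50% fall but final raw signal above 3038400; inactive means fall in fluorescence gain under 50%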;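 further: plate controls were neutral control wells for no effect and wells lacking membranes for full effect; tested at 10 µM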
Target sequence (Q03530 whole entry, looked up): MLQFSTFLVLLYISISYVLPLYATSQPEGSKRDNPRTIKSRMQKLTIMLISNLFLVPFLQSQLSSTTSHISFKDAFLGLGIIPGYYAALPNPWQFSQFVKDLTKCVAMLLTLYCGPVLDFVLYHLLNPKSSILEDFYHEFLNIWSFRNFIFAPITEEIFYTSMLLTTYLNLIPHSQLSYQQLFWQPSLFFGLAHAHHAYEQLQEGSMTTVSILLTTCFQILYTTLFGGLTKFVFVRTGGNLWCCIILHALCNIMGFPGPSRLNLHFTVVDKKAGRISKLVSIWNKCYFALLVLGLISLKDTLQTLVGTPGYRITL
MT1-MMP act inh = MT1-MMP (human) activation inhibition | HT1080 RFP-PRO-GFP cells, GFP/RFP ratio fluorescence, overnight; percent of plate control window, DMSO zero | GFP/RFP ratio change, % at 20 µM | AID 651647 | 360,000 compounds, 0.061% hits;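 active means GFP/RFP ratio change of at least 30% with cell ATP level not reduced by more than half and red fluorescence within 50% of control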; further: strong numbers were not always called active
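Assay system – RFP-PRO-GFP reporter HT1080 cells · Compound dosing – single dose of 20 µM compound, 1% DMSO final · Incubation – overnight compound exposure at 37 °C · Measure – GFP/RFP fluorescence ratio · Benchmarks – DMSO wells and RFP-L50D-GFP cells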
eIF4H inh = inhibitors of RNA binding by human eIF4H; 290,000 compounds, 0.94% hits; inhibition, % at 35 µM; eIF4H fluorescence polarization binding assay; Q15056;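 active means 50% or more with normal probe brightness, or confirmed in later tests; inconclusive means above 50% with abnormal brightness, or retests that disagree; inactive means below 50% or failed in later tests; about a fifth of its hits are not listed in these tables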;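 further: calls also rest on retests at 20 µM and on dose response follow-up; 0% = protein and probe with vehicle and 100% = probe without protein; strong numbers were not always called active; many hits fall short of the cut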
PABP polyA inh = blocks human PABP binding to poly(A) RNA; P11940; fluorescence polarization; inhibition, % at 35 µM; 290,000 compounds, 1% hits; AID 2014;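 active means 50% or more with normal probe brightness, or confirmed in later tests; inconclusive means above 50% with abnormal brightness, or retests that disagree; inactive means below 50% or failed in later tests; about a fifth of its hits are not listed in these tables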;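 further: calls also rest on retests at 20 µM and on dose response follow-up; controls were probe without protein and protein plus probe with vehicle; some compounds called inactive have numbers as strong as hits; many hits fall short of the cut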
Target sequence (P11940 whole entry, looked up): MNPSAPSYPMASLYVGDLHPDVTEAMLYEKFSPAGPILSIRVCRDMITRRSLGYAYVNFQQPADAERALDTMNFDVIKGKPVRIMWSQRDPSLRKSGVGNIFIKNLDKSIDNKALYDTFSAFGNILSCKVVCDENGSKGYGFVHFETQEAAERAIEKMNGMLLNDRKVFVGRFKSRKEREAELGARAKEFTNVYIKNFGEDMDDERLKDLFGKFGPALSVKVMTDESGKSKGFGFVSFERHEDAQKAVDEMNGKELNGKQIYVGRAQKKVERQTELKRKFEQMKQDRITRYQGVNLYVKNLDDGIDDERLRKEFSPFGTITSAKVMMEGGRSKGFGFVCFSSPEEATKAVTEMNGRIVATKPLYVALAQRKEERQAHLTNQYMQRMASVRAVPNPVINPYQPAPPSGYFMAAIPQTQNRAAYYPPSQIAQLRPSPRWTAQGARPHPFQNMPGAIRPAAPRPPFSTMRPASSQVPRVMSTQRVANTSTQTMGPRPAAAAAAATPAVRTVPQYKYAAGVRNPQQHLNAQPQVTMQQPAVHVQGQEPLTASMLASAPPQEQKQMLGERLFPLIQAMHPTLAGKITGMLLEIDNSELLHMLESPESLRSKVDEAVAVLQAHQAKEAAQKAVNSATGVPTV
HIV Env fusion = HIV envelope-mediated fusion inhibition; HeLa-JRFL Env/CEM21 cell fusion, luciferase; inhibition, % at 12.3 µM; 360,000 compounds, 1.1% hits;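 active means mean replicate inhibition score of at least 50 and every replicate individually at or above 50; inconclusive means only one of the two criteria met; inactive means mean below 50 and not all replicates reaching 50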;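 further: 0% = plate neutral controls and 100% = maraviroc near 300 nM; one replicate is shown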
CSC inhib = blocks cancer stem cells; cancer stem cell-like cells viability, luminescence; inhibition, % at 7.5 µM; 300,000 compounds, 1.1% hits;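 active means mean at 75% or more and at least half the replicates too; inconclusive means mean and replicates disagree; tested in HMLE shEcad cells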;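 further: 0% = median of negative and 100% = median of positive control wells; the first replicate is given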
MT1-MMP act inh RFP = recorded beside MT1-MMP act inh, whose call it bears; RFP signal change, %; measured here: RFP expression control read;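 0 = vehicle wells; hits needed this value within 50% of zero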
* hit, by the source's call; i = inactive; ? = inconclusive; · = no result given; + = active, no number; & = joins results of further samples.

SMILES	Yeast UUG start	Rce1 inhib	MT1-MMP act inh	MT1-MMP act inh RFP	eIF4H inh	PABP polyA inh	HIV Env fusion	CSC inhib
C=CCn1c(COc2ccc(F)cc2)nnc1SCC(=O)NC1CCS(=O)(=O)C1 (stereo not given)	·	i	-1	-4	·	·	9	-8
O=C1C2C3C=CC(C3)C2C(=O)N1/N=C/c1cn(Cc2ccccc2)c2ccccc12 (stereo not given)	-8	i	-5	-11	2	3	·	73
COc1cc(OC)c(C(=O)OCC(=O)N(Cc2ccccc2)C(C)(C)C)cc1OC	·	i	1	0	11	14	-3	2
COc1ccc(-c2nnn(CC(=O)N3CCN(c4ccccc4OC)CC3)n2)cc1	-8	i	-5	-5	-1	-9	·	-7
O=C(NCc1ccccc1)c1ccc(N2C(=O)C3CCCCC3C2=O)cc1 (stereo not given)	·	i	2	0	-11	-5	3	-17
O=C(NCc1cccnc1)Nc1ccc(Cl)c(Cl)c1	13	i	6	4	-2	1	-112	-10
CCCCCCNc1c([N+](=O)[O-])cc(C)cc1[N+](=O)[O-]	-11	i	2	-3	·	·	-57	11
COc1ccc(NC(=O)C2(C)CCN2C(=O)Cc2ccc(Cl)cc2Cl)cc1OC (stereo not given)	3	·	4	0	·	·	6	·
Cc1ccc(-c2cc(N)n(-c3ccc(F)cc3)n2)cc1	·	i	0	0	-6	3	-28	-4
CN1C(=O)[C@H]2[C@@H](/C=C/c3ccccc3)N3C(=O)CN(Cc4ccc(-c5ccccc5)cc4)C(=O)[C@@]3(Cc3ccccc3)[C@H]2C1=O	-8	i	3	-4	-3	-1	1	0
Cc1ccc(NC(=O)CSc2nnc(-c3ccncc3)o2)cc1	-6	i	-5	-1	-6	-6	-12	-8
COc1cccc2c(=O)c(SC(F)(F)C(F)C(F)(F)F)c(C)[nH]c12 (stereo not given)	-16	i	-1	-4	-9	-5	-35	40
CCN1C(=O)[C@H]2[C@@H](c3ccc(-c4cccc(Cl)c4)cc3)N[C@@](C)(C(=O)OC)[C@H]2C1=O	3	i	1	2	·	·	-11	-18
CCN(c1ccccc1)S(=O)(=O)c1ccc2c(c1)N(C(C)=O)CCS2	-5	i	1	1	-6	-1	1	-12
O=C(O)COc1ccc(C(NC(=O)c2c(F)cccc2F)NC(=O)c2c(F)cccc2F)cc1	-20	i	2	-1	-12	30	2	-16
CCCCNC(=S)NNC(=O)c1cc(C)on1	-16	i	14	4	-4	-6	·	3
CCOc1ccc(C(=O)NCC(=O)OCC(=O)N2CCCC2)cc1	·	i	-3	-2	-2	-2	4	2
CC(=O)N1CCc2cc(Br)cc(S(=O)(=O)N3CCCCC3)c21	-5	i	0	-1	-14	10	-2	-14
O=C(Nc1ccccc1C(F)(F)F)C1CCN(C(=O)Cc2ccccc2)CC1	-9	i	-3	0	0	4	-8	3
NNc1nc2c(-c3ccc(Cl)cc3)nnn2c2ccccc12	-5	i	-64	-7	?	10	-73	44
CC(C)COC(=O)Cn1cnc2ccc(Br)cc2c1=O	0	i	2	4	8	9	·	-13
CCOc1ccccc1OCCCC(=O)NCCc1ccc(S(N)(=O)=O)cc1	-8	i	-3	-1	-2	7	-3	-11
CSc1n[nH]c(-c2ccc(C(F)(F)F)cc2)n1	·	i	-1	-1	-1	4	-24	-16
CCOC(=O)N1CCN(Cc2nc(-c3cccc(C)c3)no2)CC1	-8	·	-6	0	-3	-12	·	1
COC(=O)CNC(=O)COC(=O)Cc1ccc(Cl)cc1	·	i	-5	0	4	8	-15	·
Later entries
SMILES	Yeast UUG start	Rce1 inhib	MT1-MMP act inh	MT1-MMP act inh RFP	eIF4H inh	PABP polyA inh	HIV Env fusion	CSC inhib
COC(=O)/C(C#N)=C1/SC=C(C)N1c1ccccc1	-19	i	1	1	1	11	·	-15
OCCN(CCO)CC(O)COCCC12CC3CC(CC(C3)C1)C2 (stereo not given)	-1	i	0	-3	-16	12	·	36
CCOC(=O)CSc1cc(CS(=O)(=O)c2ccccc2)nc(-c2ccccc2)n1	-1	i	2	-3	2	8	·	-14
COc1ccc(NC(=O)CSc2nc3ccccc3c(=O)n2CCCN2CCCCC2)c(OC)c1	-3	i	5	0	-9	4	-51	-10
O=C(COC(=O)c1cccc(Br)c1)NCCc1ccc(F)cc1	·	i	2	3	-5	-4	17	-9
CC(=O)N1CCN(c2ccc(NCc3ccco3)cc2)CC1	-25	·	2	6	·	·	30	-21
COc1ccc(C2CC(=O)C3=C(C2)Nc2ccccc2N(C(C)=O)C3c2ccco2)cc1 (stereo not given)	-19	i	-4	-1	1	13	-12	19
Cc1ccc(C(NC(=O)C2CCN(Cc3ccc(Cl)c(Cl)c3)CC2)c2ccccn2)cc1 (stereo not given)	-19	·	-1	5	·	·	30	·
Cc1ccc(/C=C2/SC(=S)N(CC(=O)Nc3ncc(Cc4ccc(C)cc4)s3)C2=O)cc1	·	i	4	4	-5	4	·	15
COc1ccc(CNC(=O)CN(C(=O)CCC(=O)Nc2ccccn2)c2cc(C)ccc2C)cc1	-13	i	0	1	-1	0	8	-64
O=C(/C=C/c1ccc(S(=O)(=O)N2CCOCC2)cc1)N1CCN(c2ccccc2)CC1	·	i	4	-17	-5	-8	7	-11
O=C(O)[C@H](Cc1ccccc1)NC(=O)C(c1ccccc1)(c1ccccc1)c1ccccc1	16	i	-4	5	-3	6	11	8
O[C@@H]1C[C@H](c2ccc(Cl)cc2)N(CC2CCCCC2)C[C@H]1n1cc(C2CC2)nn1	-15	·	2	2	·	·	4	·
CC(=O)C1=C(c2ccccc2)N(C(C)=O)n2c(C)nnc2S1	0	i	-4	0	0	20	-5	-7
CC1CCCCC1NC(=O)c1cn(C)c2ccc(S(=O)(=O)N3CCCC3)cc2c1=O (stereo not given)	-5	i	-4	5	-5	0	-24	2
OC(CNC1Cc2ccccc2C1)COc1ccc(Cl)cc1 (stereo not given)	·	i	0	4	6	0	2	23
Cc1ccccc1CS(=O)(=O)Cc1ccc(C(=O)N2CCOCC2)o1	·	i	-3	-1	-8	0	11	4
CCCC(=O)Nc1ccc2c(c1)C(=O)N(CCC(=O)O)C2=O	-17	i	0	2	-6	-4	-25	8
CN(C(=O)OC(C)(C)C)c1ccc(-c2nc3ccccc3s2)cc1	-63	i	6	-21	·	·	57*	30
CSc1ccccc1OCc1cc(C(=O)NCCn2ccnc2C)no1	-19	i	-5	-1	6	-7	·	30
N=C1/C(=C/c2ccc(OCc3ccccc3)cc2)C(=O)N=C2SC(CC(=O)N3CCOCC3)=NN12	-14	i	-1	2	-2	2	-14	7
O=C1NC(=Nc2ccc(Cl)cc2)SC1Cc1cccc(Cl)c1Cl (stereo not given)	-17	i	8	6	1	4	-9	77*
C/C(=N\Nc1cc(C)nc(-c2ccccc2)n1)c1cccc([N+](=O)[O-])c1	·	i	-1	-2	-5	-10	-22	-15
COc1ccc(S(=O)(=O)NCCN2CCOCC2)c2ccccc12	-9	i	-1	7	-4	-5	·	-12
CC(=O)N1CCc2cc(C(=O)CN3CCN(c4cccc(Cl)c4)CC3)ccc21	-7	i	-2	-10	-1	-1	10	0
(further entries)
SMILES	Yeast UUG start	Rce1 inhib	MT1-MMP act inh	MT1-MMP act inh RFP	eIF4H inh	PABP polyA inh	HIV Env fusion	CSC inhib
COc1ccc(OCc2n[nH]c(=S)n2Cc2ccco2)cc1	·	i	1	-4	12	-6	-3	-8
Cc1nc(SCC(=O)c2ccccc2)[nH]c(=O)c1Oc1ccc(Cl)cc1	·	i	3	2	-13	-1	-5	-6
CN(C)Cc1c(C(=O)N/N=C/c2ccc(OCc3ccc(F)cc3)cc2)nnn1-c1nonc1N	-2	i	2	-2	-5	7	9	-1
COc1ccc(S(=O)(=O)N2CCCCCC2)cc1	-14	i	5	3	-5	-12	5	-7
C[C@H]1CN([C@@H](C)CO)S(=O)(=O)c2ccc(C#CC3(O)CCCC3)cc2O[C@@H]1CN(C)C(=O)Cc1cccnc1	-4&9&1	·	1	4	·	·	-28	·
COc1ccc(-c2cc(C(=O)c3c(N)n(C)c(=O)n(C)c3=O)c3ccccc3n2)cc1	·	i	-1	-1	-8	-9	-116	7
O=C(COC(=O)c1ccccc1OCc1ccccc1Cl)NC1CC1	-11	i	1	2	2	-8	13	7
CCCCC(=O)NC(c1ccc(N(CC)CC)cc1)c1ccc2cccnc2c1O (stereo not given)	-30	i	-3	-14	14	-7	-265	+
CC(OC(=O)CN1C(=O)c2ccccc2C1=O)C(=O)N(C)c1ccccc1 (stereo not given)	·	i	0	3	·	·	-19	-4
O=C(NCCNC(=O)c1ccccn1)c1ccc(-c2ccccc2)cc1	-12	i	-1	0	-9	2	-38	-10
CN(CC(=O)NCC1CCCO1)S(=O)(=O)c1ccc(Br)cc1 (stereo not given)	-8	i	-5	0	-7	-7	-3	2
O=C1CCCc2cc3c(cc21)CCCC3	-6	·	0	2	·	·	-10	·
COc1ccccc1C(CNC(=O)c1cccc(S(=O)(=O)N2c3ccccc3CC2C)c1)N(C)C (stereo not given)	8	·	1	-4	·	·	5	·
COc1ccc(OC)c(-c2nnc3n2N=C(c2ccc(OC)c(OC)c2)CS3)c1	-24	·	17	-3	·	·	i	·
Cc1[nH]nc2c1C(c1ccsc1)C1=C(CC(C)(C)CC1=O)N2 (stereo not given)	·	i	5	7	-1	-14	-36	6
OCCOCCn1c(C(CO)Nc2nc(-c3ccc(Cl)cc3)cs2)nc2ccccc21 (stereo not given)	-20	i	8	-5	·	·	-24	-10
COc1cccc(C(=O)Nc2ccccc2NC(=O)c2cccc(OC)c2)c1	-12	i	10	4	-2	-8	9	-16
Cc1cc(C)n(-c2ccc(C(=O)N3CC(C)OC(C)C3)cc2)n1 (stereo not given)	·	i	-2	1	2	1	-9	3
COc1cc(OC)cc(-c2c(-c3ccc(F)cc3)c3cc(-c4ccc5cc[nH]c5c4)ccc3n2C)c1	-19	·	0	-2	·	·	21	14
CC[C@@H](Nc1ncnc2c1oc1ccccc12)C(=O)O	-12	i	3	7	-3	1	4	-13
O=C(NCCN1CCOCC1)c1ccc2ccccc2c1	-8	i	0	5	-2	-2	·	-10
N#Cc1nc(NCC(F)F)nc(Nc2cc(F)cc(F)c2)n1	-11	·	14	-26	·	·	-60	30
COc1cccc(/C=C2\SC(=S)N(CCC(=O)N3CCCCC3CCO)C2=O)c1 (stereo not given)	-5	i	-6	-5	-13	5	-7	20
Cc1cccc(N2CC(C(=O)Nc3ccccc3N3CCCC3)CC2=O)c1C (stereo not given)	·	i	0	-1	·	·	-14	-7
COc1cc(/C=N/NC(=O)c2ccc(CN3c4cccc5cccc(c45)S3(=O)=O)cc2)cc(OC)c1O	-6	i	4	-7	-9	-3	2	·
COc1ccccc1N(CC(=O)NCc1ccc2c(c1)OCO2)C(=O)CCC(=O)Nc1nccs1	-22	i	-4	-2	-1	10	0	-4
O=S(=O)(c1ccc2ccccc2c1)N(CC(O)CN1CCOCC1)c1ccccc1 (stereo not given)	-1	i	-5	-3	8	4	·	22

Some of the entries so far, as comma-separated lines.
Compound,Yeast UUG start,Rce1 inhib,MT1-MMP act inh,MT1-MMP act inh RFP,eIF4H inh,PABP polyA inh,HIV Env fusion,CSC inhib
CN(C)Cc1c(C(=O)N/N=C/c2ccc(OCc3ccc(F)cc3)cc2)nnn1-c1nonc1N,-2,i,2,-2,-5,7,9,-1
COc1ccc(S(=O)(=O)N2CCCCCC2)cc1,-14,i,5,3,-5,-12,5,-7
C[C@H]1CN([C@@H](C)CO)S(=O)(=O)c2ccc(C#CC3(O)CCCC3)cc2O[C@@H]1CN(C)C(=O)Cc1cccnc1,-4&9&1,·,1,4,·,·,-28,·
COc1ccc(-c2cc(C(=O)c3c(N)n(C)c(=O)n(C)c3=O)c3ccccc3n2)cc1,·,i,-1,-1,-8,-9,-116,7
